Source: PubChem (Fisher Drug Discovery Resource Center)
NPYLR7 agonist: mosquito NPYLR7 agonism; HEK293T NPYLR7/Galpha15, GCaMP6s calcium fluorescence; activation, % at 10 µM; hit rate 0.15% among 270,000; in the data active means activation above about 40%;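 further: 0% = vehicle and 100% = reference agonist at the receptor; some compounds past the cut are filed as inactive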
NPYLR7 agonist max-min: second read-out of NPYLR7 agonist, no call of its own (marks repeat the call); activation, %; measured here: Max-Min RFU normalised activation; some inactives read as strong as hits;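 span of the calcium signal over five minutes; 0% = vehicle and 100% = native peptide agonist; compound fluorescence can raise it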
An asterisk follows results filed as active.

SMILES	NPYLR7 agonist	NPYLR7 agonist max-min
Cc1cccc(N2CCN(Cn3nc(C)n(-c4ccccc4C)c3=S)CC2)c1	9	7
COc1ccc(S(=O)(=O)CC(=O)N2CCN(c3nc4c(F)cccc4s3)CC2)cc1	2	-2
COCCNC(=O)C1=CN2CCN(Cc3c(C)noc3C)C(=O)N=C2O1	0	-1
CSc1ccc(CN(C(=O)[C@@H](N)Cc2c[nH]c3ccccc23)C2CC2)cc1	-3	-7
Cc1cc(C(=O)N2CCN(c3nc4nccc(-c5ccc(C6CCCCC6)cc5)n4n3)CC2)c(C)o1	28	20
COc1ccc2c(c1)CCN2CC(=O)NC1(c2ccccc2)CCC1	3	0
COc1cc2c(cc1OC)C(C(C)NC(=O)Cc1ccccc1)N(Cc1cccc(C)c1)CC2 (centres undefined)	-2	4
C=C(C)CN(CC)C(=O)CC1C(=O)NCCN1CC1CCCCC1 (centres undefined)	8	8
CCCN(Cc1cc(NC(=O)CC)ccc1N(C)C)C(=O)Cc1cccs1	22	23
COCc1nc(C)nc(N2CCN(C(=O)C(C)C)CC2)c1Cc1cc(C)ccc1C	-8	-2
O=C(Nc1ccc(C(F)(F)F)cn1)N1CCN(c2ncccc2C(F)(F)F)CC1	8	-6
CCOC(=O)C1(Cc2ccc(F)cc2)CCCN(C(=O)c2ccco2)C1 (centres undefined)	0	-1
COc1ccc(N2CCN(Cc3cc(=O)c(OC)cn3CC(=O)Nc3cc(C)on3)CC2)cc1	3	3
Cc1ccc(S(=O)(=O)NCc2cccc(-c3ncn[nH]3)c2)cc1F	8	9
Nc1c(-c2ccccc2)cnn1-c1ccc([N+](=O)[O-])cc1	3	1
O=C(CCc1ccccc1)N1CCCN(c2nc(C3CCOCC3)nc3c2cnn3-c2ccccc2)CC1	9	11
COC(=O)c1ccc2oc(=O)n(C3CCN(C(=O)c4c(C)noc4C)CC3)c2c1	31	29
Cc1cc(C)n(C2CCN(Cc3cccn3-c3ncccn3)C2)n1 (centres undefined)	14	7
CCCOC1CCCN(Cc2ccc(O)c(O)c2)C1 (centres undefined)	-1	-4
CC1(C)CCCC2=C1CC1C(=O)NNC(=O)C1C2 (centres undefined)	1	45
O=C(Nc1cccc(-c2cccc(Cl)c2)c1)C1CCN(C(=O)c2csnn2)CC1	-3	-5
COc1ccc(NC(=O)Cn2c3ccccc3c(=O)c3ccccc32)c(OC)c1	-2	-8
Cc1ccc(CN2CCC(CN(C)Cc3cc4ccccc4[nH]3)CC2)o1	2	-3
CCOC(=O)N1CCN(Cc2ccc3c(c2)CN(C(=O)CC2=CCCCC2)CCO3)CC1	23	5
COc1cc(C=NNC(=O)CCc2c(C)n[nH]c2C)ccc1O	3	3
O=C(CCCc1ccccc1)N1CCCC(O)(CO)CC1 (centres undefined)	1	1
O=C(NCC1(c2ccc(F)cc2)CCCC1)C1CCCO1 (centres undefined)	2	1
CC(C)N1CCc2c(sc(NC(=O)C3CC3)c2-c2nc3ccccc3s2)C1	166*	178*
Cc1cccc(C2c3[nH]c4ccccc4c3CCN2C(=O)c2cn(C)c3ccccc3c2=O)n1 (centres undefined)	-2	-1
CN(C)C(=O)C1CN(C(=O)c2cc(S(=O)(=O)N3CCCC3)cn2C)c2ccccc2O1 (centres undefined)	0	0
CC(=O)C1(C)N(O)C(C)(C)C(c2ccc(F)cc2)=[N+]1[O-] (centres undefined)	-9	-18
COc1cccc2sc(N(Cc3ccccn3)C(=O)c3cc(C)nn3C)nc12	3	2
CCOC(=O)N=S(N)(=O)c1ccc(Cl)cc1 (centres undefined)	2	-1
O=C(COc1ccc(Cl)cc1)Nc1cccc(-c2cccc(-c3ccc(F)cc3)n2)c1	10	5
N#CC(C(=O)C1c2ccccc2-c2ccccc21)c1nc2ccccc2s1 (centres undefined)	2	10
CC(=O)NC1=NN(C(C)=O)C2(S1)C(=O)N(CCCOc1ccccc1)c1c(C)cccc12 (centres undefined)	-1	-2
c1ccc(CCN2CCC(Cn3ccnc3C3CC3)CC2)cc1	5	3
Cc1nc2n(n1)C(=O)C(C(c1ccco1)N1CCN(CCO)CC1)S2 (centres undefined)	-2	-3
COCCNC(=O)CSc1ncnc2c1nnn2C	0	7
OCCCCN1CCCCC1CCc1ccccc1 (centres undefined)	-3	-4

3 structures out of the list, ordered by count of non-hydrogen atoms, smallest number first:
SMILES	NPYLR7 agonist	NPYLR7 agonist max-min
C=C(C)CN(CC)C(=O)CC1C(=O)NCCN1CC1CCCCC1 (centres undefined)	8	8
N#CC(C(=O)C1c2ccccc2-c2ccccc21)c1nc2ccccc2s1 (centres undefined)	2	10
O=C(Nc1cccc(-c2cccc(Cl)c2)c1)C1CCN(C(=O)c2csnn2)CC1	-3	-5

Going on with the list.
SMILES	NPYLR7 agonist	NPYLR7 agonist max-min
Cc1ccc(C(=O)N2CCC(c3ccc(F)cc3)CC2)s1	-12	-14
O=C(Nc1cc(F)ccc1OCC1CCCO1)c1ccsc1 (centres undefined)	8	4
CC(C)(NCC(=O)Nc1ccccc1Br)c1ccc(Cl)cc1	1	0
COCCNC(=O)c1cc(NC(=O)c2cccc(Br)c2)ccc1N1CCN(c2ccccc2OC)CC1	4	14
Cc1ccc(C)c2sc(N(CCCN3CCOCC3)C(=O)COc3ccccc3)nc12	-2	-3
CCc1cc(NCc2ccccc2)n(C)n1	14	8
O=C(c1ccc(Br)o1)N1CCC(C(O)c2ccccc2)CC1 (centres undefined)	-2	-2
CS(=O)(=O)Oc1ccc(CNCc2ccccc2)cc1	-14	-14
Cn1c(=O)c2c(nc(N3CCc4ccccc4C3)n2CCSc2ncccn2)n(C)c1=O	-2	45
CCOC(=O)C1CCCN(C(=O)c2ccc(CSc3nc(CC)cc(N4CCOCC4)n3)cc2)C1 (centres undefined)	3	11
O=C(Cc1cccc(OC(F)F)c1)NC1CCN(CC(F)F)CC1	8	8
COc1cn(CC(=O)Nc2ccc(C)cc2)c(CN2CCOCC2)cc1=O	1	-1
Cc1ccc(CC(=O)NCCN2CCCCC2CO)cc1 (centres undefined)	7	2
O=S(=O)(CC1CCCO1)Nc1ccc(N2CCCC2)c(Cl)c1 (centres undefined)	12	9
O=C(c1ccc(F)cc1)N1CCCC(OCCOc2ccccc2)C1 (centres undefined)	-1	4
COc1ccc(CC(=O)Nc2ccc(-n3nc(OC(C)C)nc3-c3cccc(C(F)(F)F)c3)cc2)cc1	21	24
O=C(OCc1cc(=O)n2c(n1)sc1ccccc12)c1cc(=O)c2ccccc2o1	-3	-4
O=S(=O)(c1c(Cl)cccc1Cl)N1CCC(c2cn(Cc3cccc(F)c3)c3ccccc23)CC1	29	15
O=S(=O)(Oc1ccccc1CNCc1ccc(F)cc1)c1ccc(F)cc1	4	4
O=C(c1cc(F)ccc1C(F)(F)F)N1CCc2c([nH]c3ccccc23)C1c1ccccc1F (centres undefined)	-10	-16
COCCNC(=O)C1CCCN(C2CCN(c3noc(C(C)C)n3)CC2)C1 (centres undefined)	25	19
O=C1Nc2ccccc2/C1=c1\sc2nc3ccccc3n2c1=O	4	6
O[C@@H]1CN(CCc2ccccc2)CC[C@H]1N1CCN(c2ccccc2F)CC1	1	-13
Cc1ccc(C(C(O)C(=O)c2c[nH]c3ccccc23)N2CCN(c3ccccn3)CC2)cc1 (centres undefined)	1	-6
COCCS(=O)(=O)N1CCCC(c2nc(C)no2)C1 (centres undefined)	8	8
O=S1(=O)Nc2ccc(O)cc2-c2cc(Cl)ccc21	0	2
O=C(CC(c1ccccc1)c1ccco1)N1C[C@H]2C[C@H](O)[C@H](O)C[C@H]2C1 (some centres undefined)	3	2
S=C(NN=C1CCCc2ccccc21)NC1CCCCC1	4	10
CCCC(=O)N1CCCC1(C)C(=O)Nc1ccc2scnc2c1 (centres undefined)	0	-3
COCC(=O)N1CCCN(C(=O)CSc2ccncc2)CC1	-5	-5
Cc1ccc(NC(=O)C2CC2)cc1NS(=O)(=O)c1ccc(Cl)s1	1	7
CS(=O)(=O)N1C[C@@H](CO)[C@@H]2Oc3ccc(Cl)cc3[C@@H]21	-3	6
C=CCN(Cc1csc(COc2c(OC)cccc2OC)n1)C(=O)C(C)C	14	27
CC1CC(C)CN(Cc2nc3c(c(=O)n(C)c(=O)n3C)n2Cc2cccc3ccccc23)C1 (centres undefined)	17	14
Cn1c(Nn2cccc2)c(C#N)c(=O)n(C)c1=O	-1	-2
Cc1cc(=O)n2c3ccccc3n(CC(O)CN3CCOCC3)c2c1C#N (centres undefined)	1	-4
COC(=O)c1sc(NC(=O)COC(=O)C2CC2C)c(C(=O)OC)c1C (centres undefined)	0	-2
Cc1ccc(-n2nc(-c3ccco3)cc2C(=O)O)cc1	13	11
Cc1cccc(C2CCCN2Cc2csc(-c3cnn(C)c3)n2)c1 (centres undefined)	-1	-2
O=C(Nc1cccc(C(F)(F)F)c1)c1cc2ccc(O)cc2oc1=O	-4	-14

Look-ups from the list.
O[C@@H]1CN(CCc2ccccc2)CC[C@H]1N1CCN(c2ccccc2F)CC1 in NPYLR7 agonist max-min shows -13
CC1CC(C)CN(Cc2nc3c(c(=O)n(C)c(=O)n3C)n2Cc2cccc3ccccc23)C1 (centres undefined) in NPYLR7 agonist shows 17

(cont.)
SMILES	NPYLR7 agonist	NPYLR7 agonist max-min
COc1ccc(CNC(=O)c2cn(Cc3ccc(C(=O)N(C)C)cc3)c(=O)s2)cc1OC	12	3
Cc1cccc(NC(=O)COc2coc(CN3CCc4ccccc4C3)cc2=O)c1	4	1
CCOC(=O)CCCNC(=O)N1CCN(c2ncccc2C(=O)NCC2CCCO2)CC1 (centres undefined)	16	15
COc1ccc(C(C)NC(=O)Cc2nn(C)c(=O)c3ccccc23)cc1F (centres undefined)	3	-3
COc1cccc(C(=O)N(CCN2CCOCC2)Cc2nccn2Cc2c(C)cc(C)cc2C)c1	5	14
Cc1c(C2=NNC(=NC3CC3)SC2)sc2ccccc12	6	5
COc1c(C)cnc2c1c(=O)n(CC(=O)N1CCCC1)c(=O)n2C	1	-1
Cc1nc(COc2ccccc2C(=O)N(C)CC(=O)Nc2cccc3ccccc23)no1	0	5
CCn1c(C(C#N)=Cc2ccc(C)cc2)nc2ccccc21	-8	-11
CCc1c(Cl)nc(C)nc1N1CCCC(C(=O)Nc2ccccc2)C1 (centres undefined)	10	-4
Cc1ccc(S(=O)(=O)N(Cc2nccn2Cc2ccc(F)cc2)CC2CCCO2)cc1 (centres undefined)	6	6
CCOC(=O)c1sc(N)c(C#N)c1CSc1nc(C)nc2sc(C(=O)OCC)c(C)c12	17	12
C#Cc1cccc(N(Cc2ccccc2)C(=O)CN(C)C(C)=O)c1	5	3
c1ccc(CSc2ccc(-c3ccc4c(c3)OCO4)nn2)nc1	4	2
COc1ccccc1OCC1CN(C(=O)c2ccc(C)nc2Cl)CCO1 (centres undefined)	4	4
Cc1csc(Sc2ccc(N)cc2Cl)n1	23	14
COc1ccc(C(CNc2ccc(C(F)(F)F)cn2)N(C)C)cc1OC (centres undefined)	3	-2
CCCCCc1ccc(C(=O)N2CCCN(c3nc4ccccc4nc3-c3ccccc3)CC2)cc1	5	5
Cn1cccc1C(=O)C(=O)N1CC[C@@](C)(O)[C@@H](Cc2ccccc2)C1	7	5
CC(C)C(=O)Nn1cnc2c(cnn2-c2ccccc2)c1=O	2	1

Structural class: the compounds so far containing a thiophene ring, fused or not.
SMILES	NPYLR7 agonist	NPYLR7 agonist max-min
CCCN(Cc1cc(NC(=O)CC)ccc1N(C)C)C(=O)Cc1cccs1	22	23
CC(C)N1CCc2c(sc(NC(=O)C3CC3)c2-c2nc3ccccc3s2)C1	166*	178*
Cc1ccc(C(=O)N2CCC(c3ccc(F)cc3)CC2)s1	-12	-14
O=C(Nc1cc(F)ccc1OCC1CCCO1)c1ccsc1 (centres undefined)	8	4
Cc1ccc(NC(=O)C2CC2)cc1NS(=O)(=O)c1ccc(Cl)s1	1	7
COC(=O)c1sc(NC(=O)COC(=O)C2CC2C)c(C(=O)OC)c1C (centres undefined)	0	-2
Cc1c(C2=NNC(=NC3CC3)SC2)sc2ccccc12	6	5
CCOC(=O)c1sc(N)c(C#N)c1CSc1nc(C)nc2sc(C(=O)OCC)c(C)c12	17	12

Next part
SMILES	NPYLR7 agonist	NPYLR7 agonist max-min
O=S(=O)(CCc1ccccc1)NCCc1csc2nc(-c3ccccc3F)nn12	0	-2
CCC1CCC(C(=O)NCC(=O)NCC2CCCN(C)C2)CC1 (centres undefined)	5	2
COCCCN(CC(=O)N1CCc2sccc2C1c1ccc(Cl)cc1Cl)S(=O)(=O)c1ccc(OC)cc1 (centres undefined)	3	-2
Cc1cc(C(C)(C)C)cc(C)c1CCNC(=O)c1ccncc1	8	9
c1n[nH]c(SCc2ccc(CSc3ncn[nH]3)cc2)n1	3	3
FC(F)(F)c1cccc(N2N=C(/C=C/c3ccccc3)CC2c2ccccc2)c1 (centres undefined)	-2	-5
Cn1c(C(=O)Nc2nccs2)cc2c(=O)n3ccccc3nc21	7	3
CCS(=O)(=O)Oc1cc(CN(C(=O)Nc2c(C(C)C)cccc2C(C)C)C(C)C)ccc1OC	6	2
CC(=O)N1C[C@@H]2OC(=O)N(Cc3ccccc3)[C@@H]3CC[C@@H]1C[C@@H]23	13	16
O=C(COc1cccc(F)c1)NNC(=O)Cc1ccc(Br)cc1	-2	-4
COc1ccc(-c2ncccc2C(=O)N2C[C@H]3CC[C@@H]2C3)cn1	3	1
CCOC(=O)C12CCC(C(N)=O)(CC1)CC2	0	-5
CCc1ccc(C(CNC(=O)Cc2ccc(C(F)(F)F)cc2)N(C)C)cc1 (centres undefined)	7	7
Cn1c2ccccc2c2nnc(NCCc3c[nH]c4ccccc34)nc21	-2	-3
Cc1nn(C)c(C)c1NC(=O)C(C)Oc1ccc(F)cc1Br (centres undefined)	4	1
CC(=O)Nc1ccc(S(=O)(=O)NC(C)(C)C)cc1	1	-1
CCCN1C(=O)c2ccccc2NC12C(=O)Nc1cc(OC)ccc12 (centres undefined)	-3	-3
CC1CCCN(C(=O)CCN2CCc3c([nH]c4ccccc34)C2)C1 (centres undefined)	2	-1

This is a subset; count on the stated rates, not on these rows.
